YjeE inh = displaces an ADP probe from E. coli YjeE (TsaE); P0AF67; purified YjeE, fluorescence polarisation of a bound ADP probe; Potency, µM; 0.05% of 71,000 active; AID 605; active = well fitted falling curve; inconclusive = weaker or top-dose-only fall, or a rising curve; inactive = flat or poorly fitted curve;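 also: top concentration of the series not given in the record; excess ADP was the control for the full effect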
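Purified YjeE (10 uM) with BODIPY Texas Red-labeled ADP probe (2 uM); compounds pin-transferred, 15 min at room temperature. Binding inhibition read as decreased fluorescence polarization; ADP titration as control.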
PK Bst = pyruvate kinase (B. stearothermophilus) modulation; partly purified Bacillus stearothermophilus pyruvate kinase, luminescence ATP production; ribose 5-phosphate activator present at AC10; Potency, µM; 1.2% of 51,000 active; AID 361; in the data active means potency below about 11 µM; inconclusive means mostly about 12 µM to 25 µM; inactive means weaker than that;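 the screen sought inhibitors and activators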;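 also: potency is read from the fitted curve at half-maximal effect; scaled between full activation by ribose 5 phosphate and full inhibition by luteolin; about four in five hits inhibit and the cells do not say which; series up to 57 µM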
The depositor's hits bear a star; i = inactive; ? = inconclusive; . = not tested or not shown. Only part of the results is shown, so the mix of outcomes need not match the whole.

YjeE inh	PK Bst	molecule
i	>57	CC1Cn2c(nnc2-c2cccs2)S1 (configuration not stated)
i	>57	CCC(=O)Nc1cc(Cl)ccc1N1CCN(C(=O)CC)CC1
i	>57	O=C(Cn1cnc2c(nnn2Cc2ccc(F)cc2)c1=O)NCC1CCCO1 (configuration not stated)
i	.	Nc1cc(Cl)c(N)cc1Cl
i	.	c1ccc2c(N3CCNCC3)nc(-c3ccc4c(c3)OCO4)nc2c1
i	.	O=c1c(-c2cc(F)cc(F)c2)nc2cncnc2n1-c1ccccc1
i	.	COCCN(CCOC)c1nc(C)nc2c1nc(-c1ccccc1)n2CCCN1CCCCC1C (configuration not stated)
i	i	COCC(=O)Nc1nc2ccc(C)cc2s1
i	>57	CCCCOc1ccc(C(=O)Nc2ccc(S(=O)(=O)Nc3cc(C)on3)cc2)cc1OC
i	>57	COc1ccc(C(=O)N2CCN(C(=O)Cc3ccccc3)CC2)cc1OC
i	.	CCN(CC)CCCCOc1ccccc1OC
i	>57	O=C(Nc1ccccc1Cl)N1CCN(c2ncccn2)CC1
i	>57	CCOC(=O)c1ccc(NC(=O)NC2CC3CCC(C2)N3Cc2nnnn2C(C)(C)C)cc1 (configuration not stated)
i	.	COc1ccc(NC(=O)CN(c2cc(C)cc(C)c2)S(=O)(=O)c2c(C)noc2C)cc1OC
i	>57	c1nc2nc3c(c(N4CCOCC4)n2n1)CCCC3
i	.	COc1ccc(NC(=O)CSc2nnc(Cc3cccn3C)n2-c2ccc(F)cc2)cc1
i	i	CCOC(=O)Cn1ncc(-c2ccccc2)c1N
.	>25.6	C[C@]12CC[C@@H]3c4ccc(O)cc4CC[C@H]3[C@@H]1CCC2=O
i	>57	Cn1nc(C(=O)NCCN2CCOCC2)c2ccccc2c1=O
i	>57	COc1cc2c(cc1OC)CN(C(=O)CSc1n[nH]c(N)n1)CC2
i	>57	Cc1cc(NC(=O)c2noc3c2CCCC3)n(-c2ccccc2)n1
i	>57	CC(C)Nc1nc(NC(C)C)nc(C(N)=O)n1
i	.	Cc1ccccc1-c1nc(NCCN2CCOCC2)c2ccccc2n1
i	.	CC[C@H](C)[C@@H]1O[C@]2(CC[C@@H]1C)C[C@H]1C[C@H](CC=C(C)[C@@H](O[C@@H]3C[C@H](OC)[C@H](O[C@@H]4C[C@H](OC)[C@H](O)[C@H](C)O4)[C@H](C)O3)[C@@H](C)C=CC=C3CO[C@@H]4[C@@H](O)C(C)=C[C@@H](C(=O)O1)[C@]34O)O2
i	?	O=C(Nc1nc2ccccc2s1)C1CCCN1S(=O)(=O)c1ccc(Cl)cc1 (configuration not stated)
i	>57	Cc1cc(N2CCN(c3ccccn3)CC2)n2nc(C)nc2n1
i	>57	COc1ccccc1NC(=O)CCC(=O)Nc1nnc(C(F)(F)F)s1
i	.	COc1cccc(-n2c(Cc3cc(=O)[nH]c(=O)[nH]3)nnc2SCC(=O)NC2CCCC2)c1
i	.	Cc1cc2ccccc2n1CCNC(=O)C(C)(C)C
i	>57	O=C(O)c1ccc(CN2C(=O)c3ccccc3S2(=O)=O)cc1
i	>57	COC(=O)Nc1sc2c(c1C(=O)N1CCOCC1)CCC(C)C2 (configuration not stated)
i	>57	c1ccc2c(c1)CCCn1nnnc1-2
i	>57	COc1cccc(C(=O)Oc2cc(N)n(S(=O)(=O)c3ccc(C)cc3)n2)c1OC
i	>57	Cc1cc(NC(=O)CSc2nnc(CNc3cccc(C(F)(F)F)c3)n2Cc2ccco2)no1
i	>57	COc1nonc1NCn1nc(C)cc1C
i	>57	O=C(c1nc2ccccc2s1)N1CCSCC1
i	>57	Cc1ccc(S(=O)(=O)N2CCN(C(=O)COc3ccc(-c4nnco4)cc3)CC2)cc1
i	>57	O=C(NC1CCN(C(=O)Nc2cccc(F)c2)CC1)C1CCCCC1
i	>57	O=C(NCc1cccnc1)c1cc(-c2cccs2)on1
i	0.422*	CN(C)c1ccc(N/C=C/C(=O)c2ccccc2)cc1
i	>57	COc1ccc(-c2cc(C(=O)NC(C(=O)O)C(C)C)c(C)o2)cc1OC (configuration not stated)
i	>57	Cc1ccc(-c2cc(C(=O)OCC(=O)Nc3cc(C)on3)c3ccccc3n2)c(C)c1
i	>57	Cc1c(NC(=O)CN2C(=O)c3cccc4cccc2c34)c(=O)n(-c2ccccc2)n1C
i	>57	O=S(=O)(c1ccc2c(c1)OCCO2)N1CCC(n2nnc3cc(F)ccc32)CC1
i	.	CCOC(=O)c1ccc2[nH]c(C)c(CCC(C)=O)c(=O)c2c1
i	>57	COc1ccc(NC(=O)CSc2nnc(-c3ccccc3Cl)n2Cc2ccco2)c(OC)c1
i	>57	O=C(NC1=NCCS1)C12CC3CC(C1)CC(C(=O)NC1=NCCS1)(C3)C2
i	9.09*	O=C(O)c1ccccc1NS(=O)(=O)c1cccc2cccnc12
i	>57	O=C(NCc1ccc2c(c1)OCO2)c1cccnc1
i	>57	COc1ccc(-c2noc(CCC(=O)NCCN(C)Cc3ccccc3)n2)cc1

With a hit mark in PK Bst, among the entries above:
YjeE inh	PK Bst	molecule
i	0.422*	CN(C)c1ccc(N/C=C/C(=O)c2ccccc2)cc1
i	9.09*	O=C(O)c1ccccc1NS(=O)(=O)c1cccc2cccnc12

Reprinted at random: six entries already listed, in no set order.
YjeE inh	PK Bst	molecule
i	.	CCOC(=O)c1ccc2[nH]c(C)c(CCC(C)=O)c(=O)c2c1
i	>57	O=S(=O)(c1ccc2c(c1)OCCO2)N1CCC(n2nnc3cc(F)ccc32)CC1
i	>57	COc1ccc(NC(=O)CSc2nnc(-c3ccccc3Cl)n2Cc2ccco2)c(OC)c1
i	9.09*	O=C(O)c1ccccc1NS(=O)(=O)c1cccc2cccnc12
i	>57	COc1ccc(-c2noc(CCC(=O)NCCN(C)Cc3ccccc3)n2)cc1
i	>57	Cc1ccc(-c2cc(C(=O)OCC(=O)Nc3cc(C)on3)c3ccccc3n2)c(C)c1

(listing goes on)
YjeE inh	PK Bst	molecule
i	?	O=C(NC1CCCC1)C1CCN(S(=O)(=O)c2cccc3cccnc23)CC1
i	.	COc1ccc(N(CC(=O)O)N=O)cc1
i	>57	CCOC(=O)N1CCN(c2nc3ccccc3nc2C(C#N)S(=O)(=O)c2ccc(C)cc2)CC1 (configuration not stated)
i	.	COC(=O)CNC(=O)C(C)NC(=O)OCc1ccccc1 (configuration not stated)
i	>57	CCCOC(=O)c1[nH]c2c(c1C)C(=O)CC(c1ccc(OC)c(OC)c1)C2 (configuration not stated)
i	>57	O=C(c1ccc(F)cc1)N(Cc1ccccc1)C1CCS(=O)(=O)C1 (configuration not stated)
i	>57	CCOC(=O)Cc1[nH]nc2c1C(c1ccoc1)C(C#N)=C(N)O2 (configuration not stated)
i	>57	COc1ccccc1C1C(C#N)=C(N)Oc2cc(C)n(CCCn3ccnc3)c(=O)c21 (configuration not stated)
i	.	CC(=O)Oc1cccc(N2C(=O)c3ccc(C(=O)O)cc3C2=O)c1
i	>57	Cc1cc(C)cc(Oc2ccc(N)cc2)c1
i	>57	CCOC(=O)C1CCN(S(=O)(=O)c2cc(Cl)c(C)cc2OC)CC1
i	.	COC(=O)CNC(=O)C1(C)C=CCN1C(=O)c1ccccc1 (configuration not stated)
i	.	Cc1nc([N+](=O)[O-])cn1-c1nc2ccccn2c1[N+](=O)[O-]
i	>57	Cc1cc(NC(=O)CSc2nc3ccsc3c(=O)n2Cc2ccccn2)n[nH]1
i	>57	CCN1C(=O)c2cccc3c(S(=O)(=O)Nc4ccc(OC)cc4OC)ccc1c23
i	>57	O=C(Cn1nc(C(F)(F)F)c2c1CCC2)NCc1ccc(F)cc1
i	.	CCc1ccc(S(=O)(=O)NCCc2cn3ccsc3n2)s1
i	>57	COc1cccc(N2CCN(CC(=O)Nc3nc4c(s3)CC(C)CC4)CC2)c1 (configuration not stated)
i	>57	CCOC(=O)c1sc2ncn(C(CC)C(=O)OCC)c(=O)c2c1C (configuration not stated)
i	>57	COCCCn1c(SCC(=O)NCc2ccco2)nc2sc3c(c2c1=O)CCC3
i	>57	CCOc1nc(C)ccc1-c1noc(-c2ccccn2)n1
i	.	O=c1c2ccccc2nc(SCc2nc(-c3ccccc3)no2)n1-c1ccc(F)cc1
i	>57	CCn1cc(C2Nc3ccccc3C(=O)N2O)c(C)n1 (configuration not stated)
i	>57	Cc1nn(Cc2ccccc2)c2sc(C(=O)NCc3cccnc3)cc12
i	.	COc1ccc(S(=O)(=O)N(CC(=O)Nc2ccc3c(c2)OCO3)c2ccccc2OC)cc1
i	>57	CCOc1cc(-c2c(C#N)c(=O)[nH]c3c2c(C)nn3-c2ccc(F)cc2)ccc1O
i	>57	CCS(=O)(=O)N1CCCC(C(=O)NCCCOC)C1 (configuration not stated)
i	>57	CCOC(=O)CSc1nnc(NCC(=O)OC(C)C)c(=O)[nH]1
i	>57	CCCOP(=O)(c1ccc(N(C)C)cc1)C(O)c1ccncc1 (configuration not stated)
i	>57	COC(=O)c1nc2n(n1)C(c1ccccc1OC)C1=C(CCCC1=O)N2 (configuration not stated)
i	>57	COc1cc2cc(C(c3nnnn3C3CCCC3)N3CCCCCC3)c(=O)[nH]c2cc1OC (configuration not stated)
i	>57	COCCn1c(C)cc(C(=O)CSc2nc3ccccc3c(=O)[nH]2)c1C
i	.	Cc1cc2nnc(SCC(=O)NCc3ccco3)n2c2ccccc12
i	>57	Nc1nnc(N2CCCCCC2)s1
i	>57	COc1ccc(/C(O)=C2\C(=O)C(=O)N(CCCN(C)C)C2c2ccccc2F)cc1Cl (configuration not stated)
i	>57	Cc1cccc(NC(=O)c2cc3n(n2)C(C(F)(F)F)CC(c2ccc4c(c2)OCO4)N3)c1 (configuration not stated)
i	.	Cc1ccc2c(c1[N+](=O)[O-])C(=O)c1ccccc1C2=O
i	>57	Cc1cc(=O)n2nc(N3CCCC(C(=O)N4CCc5ccccc54)C3)sc2n1 (configuration not stated)
i	.	COc1ccc(-c2cc(-c3ccccc3)nc(N3CCCC3)n2)cc1OC
i	.	O=C(c1ccco1)N1CCC2(CC1)CN(c1ncccn1)C2
i	>57	CC(=O)Nc1ccc(NC(=O)c2cccc(C(=O)OC(C)C)n2)cc1
i	.	CN(Cc1ccc(O)cc1)C1CCCCC1
i	>57	Cc1ccc(OCc2nnc(SCC(=O)NCc3ccccc3)n2C)cc1
.	>11.4	COc1ccc(-c2nn(C)c(=O)c3ccccc23)cc1NS(C)(=O)=O
i	>57	Cc1oc(CSCC2CCCO2)cc1C(=O)O (configuration not stated)
i	.	COc1cc(OC)cc(C(=O)N2CCN=C2SCc2cccnc2)c1
i	>57	COc1ccc(S(=O)(=O)n2nc(OC(=O)c3ccccc3)cc2N)cc1
i	>57	CCOC(=O)c1c(NC(=O)c2ccn(CC)n2)sc2c1CCCC2
i	.	O=C(Nc1nc(-c2ccccc2)cs1)c1cccs1
i	.	CSCCC1(C(=O)O)NC(c2ccccc2O)C2C(=O)N(C(C)C)C(=O)C21 (configuration not stated)

A draw from above in order of molar mass, falling.
YjeE inh	PK Bst	molecule
i	>57	O=C(Nc1ccccc1Cl)N1CCN(c2ncccn2)CC1
i	.	Cc1nc([N+](=O)[O-])cn1-c1nc2ccccn2c1[N+](=O)[O-]
i	>57	CC(C)Nc1nc(NC(C)C)nc(C(N)=O)n1

Following part
YjeE inh	PK Bst	molecule
i	>57	CC(NC(=O)C(CC(=O)OC(C)(C)C)NC(=O)OC(C)(C)C)C(N)=O (configuration not stated)
i	.	O=C1c2ccccc2-c2n[nH]c3cccc1c23
i	.	CS(=O)(=O)N(CC(=O)N1CCN(c2ccccc2)CC1)c1cccc(Br)c1
i	>57	Fc1cccc(F)c1CN1CCN(c2ncccn2)CC1
i	>57	O=S(=O)(c1ccccc1Cl)N1CCCC(c2nc(-c3cccnc3)no2)C1 (configuration not stated)
i	>57	COc1ccc(Cl)cc1NC(=O)CN1CCC(n2nnc3cc(F)ccc32)CC1
i	.	O=C(O)CCC(=O)c1ccc2sc3ccccc3c2c1
i	>57	CC(C)CN(C(=O)COC(=O)Cc1c[nH]c2ccccc12)C1CCS(=O)(=O)C1 (configuration not stated)
i	.	COc1ccc(NC(=O)N2CC3(CCN(C(=O)c4ccc(OC)cc4)CC3)C2)cc1
i	>57	CN(CCNC(=O)C1CCN(S(=O)(=O)N2CCOCC2)CC1)CCc1ccccc1
i	>57	Cc1cc(-n2c(C)cc(C(=O)COC(=O)CN=C3NS(=O)(=O)c4ccccc43)c2C)no1
i	>57	Cc1ccc(C)n1-n1cnc2sc(-c3ccccc3)cc2c1=O
i	>11.4	N=c1nc(-c2ccccc2)ccn1O
i	>57	O=C(NCCN1CCOCC1)C1CC(=O)N(c2ccc(F)c(Cl)c2)C1 (configuration not stated)
i	2.43*	O=C(Nc1ccc(-c2cn3ccsc3n2)cc1)C1CCCC1
i	>57	Cc1cc(C)n(C(=O)CN2C(=O)COc3ccccc32)n1
i	>57	O=C(CSc1nnc(Cc2ccccc2)o1)NCc1ccco1
i	>57	CCCCCCC(=O)N(O)C1CC(=O)N(c2ccccc2)C1=O (configuration not stated)
i	>57	O=C(CCS(=O)(=O)c1cccc2nonc12)NCCc1ccccc1Cl
i	.	Cc1cnc(CNc2ccnc(-c3ccccc3Cl)n2)cn1
i	>57	COC(=O)c1cccc(Oc2nc(N3CCOCC3)nc(N3CCOCC3)n2)c1
i	>57	COc1ccc(CCNC(=O)CCSc2nc(-c3ccco3)cc(C(F)(F)F)n2)cc1
i	.	COc1ccc(OC)c(NC(=O)CCN2CCN(c3ccccc3F)CC2)c1
